# Vaccinia stage: blocks a specific stage of Vaccinia orthopoxvirus infection, primary screen, cell-based, single point. Vaccinia-infected cells, mCherry/Venus stage reporter fluorescence; stronger effect = lower value; some inactives read as strong as hits. activity change (mCherry), % (concentration not given with the values). 0.01% of 89,000 active. AID 1053133, 2014;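 active = mCherry past -33% and 40 or more points under the early reporter, replicates agreeing; inconclusive = past -33% without that gap or agreement; tested in A549 cells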;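 note: scaled between vehicle wells and reference inhibitor wells; 23 nL library stock went into each well; one replicate is shown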
# Vaccinia stage Venus: further read-out of Vaccinia stage, marked with its call; activity change (Venus), %; measured here: Venus reporter, other viral stage;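 negative = less Venus signal; first of two replicates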
# An asterisk follows results filed as active; ? = inconclusive; / = not tested or not shown; & = joins results of further samples.
SMILES,Vaccinia stage,Vaccinia stage Venus
O=C(Nc1ccc(F)cc1)N[C@@H]1CC[C@@H](CCNC(=O)c2cc(Cl)cc(Cl)c2)O[C@@H]1CO,-9.3,1.0
O=C(Nc1ccc(F)cc1)N[C@@H]1C=C[C@H](CC(=O)N2CCOCC2)O[C@H]1CO,12.9,7.8
CN(C)CC(=O)Nc1ccc2c(c1)[C@@H]1C[C@H](CC(=O)NCc3ccc(-c4ccccc4)cc3)O[C@@H](CO)[C@@H]1O2,?,/
COCC(=O)N(C)C[C@@H]1Oc2ncc(/C=C/c3ccccc3)cc2C(=O)N([C@H](C)CO)C[C@@H]1C,-9.5,-12.7
COCC#Cc1cnc2c(c1)C(=O)N([C@@H](C)CO)C[C@@H](C)[C@@H](CN(C)C(=O)Nc1c(C)noc1C)O2,8.4,4.9
C[C@@H]1CN([C@@H](C)CO)C(=O)CCCn2cc(nn2)CO[C@@H]1CN(C)S(=O)(=O)c1ccccc1C#N,22.6,13.9
CCCN(C)C[C@@H]1Oc2cc(C#Cc3ccc(OC)cc3)ccc2S(=O)(=O)N([C@H](C)CO)C[C@@H]1C,-32.0,-13.7
CCCC(=O)Nc1ccc2c(c1)C(=O)N(C)[C@H]1CC[C@H](CC(=O)O)O[C@H]1CO2,-15.4,-18.9
COc1ccc(-c2cnc3c(c2)C(=O)N([C@@H](C)CO)C[C@@H](C)[C@H](CN(C)C(=O)Cc2ccccn2)O3)cc1,9.7,8.1
CN1C(=O)c2cc(NC(=O)C3CCCC3)ccc2OC[C@H]2O[C@@H](CC(=O)NCC3CC3)CC[C@H]21,0.9,4.5
CN(C)CCCNC(=O)C[C@H]1C=C[C@@H](NS(=O)(=O)c2ccccc2)[C@H](CO)O1,-2.1,-4.1
O=S(=O)(NC[C@@H]1CC[C@@H]2[C@@H](CN2Cc2cccc(-c3ccccn3)c2)O1)c1ccccc1,5.1,3.5
O=C(Nc1ccc2c(c1)[C@@H]1C[C@@H](CC(=O)N3CCCCC3)O[C@H](CO)[C@@H]1O2)c1cccnc1,12.1,5.8
CN1[C@@H]2c3ccc(-c4ccncc4)c(=O)n3C[C@H]1[C@H](CO)[C@H]2C(=O)NCCc1ccccc1,4.1,12.8
COc1ccc(S(=O)(=O)N(C)C[C@H]2Oc3ccc(NS(=O)(=O)c4ccc(F)cc4)cc3CC(=O)N([C@H](C)CO)C[C@H]2C)cc1,4.2,1.9
CCCC(=O)Nc1ccc2c(c1)OC[C@H](C)N(CC1CCOCC1)C[C@H](C)[C@@H](OC)CN(C)C2=O,10.4,5.1
C[C@@H]1CCCCO[C@@H](CN(C)CC2CCCCC2)[C@@H](C)CN([C@H](C)CO)C(=O)c2cc(NC(=O)Cc3ccccc3)ccc2O1,-20.8,-8.9
COc1ccc(C#Cc2ccc([C@H]3[C@H]4CN(C(=O)Cc5ccncc5)CCCCN4[C@H]3CO)cc2)cc1,?,/
COCC(=O)Nc1ccc2c(c1)C(=O)N(C)C[C@@H](OC)[C@H](C)CN(Cc1ccccc1)[C@@H](C)CO2,-10.7,-7.0
Cc1noc(C)c1S(=O)(=O)Nc1ccc2c(c1)CC(=O)N([C@H](C)CO)C[C@@H](C)[C@H](CN(C)Cc1ccncc1)O2,10.4,11.6
CO[C@H]1CN(C)C(=O)c2cc(NC(C)=O)ccc2OC[C@H](C)N(Cc2cc(F)ccc2F)C[C@@H]1C,8.1,4.2
C[C@H](CO)N1C[C@H](C)[C@H](CN(C)C(=O)Nc2ccccc2)Oc2ccc(NS(C)(=O)=O)cc2C1=O,5.0,-0.5
C[C@@H]1CN([C@H](C)CO)C(=O)Cc2cc(NS(=O)(=O)c3ccc(F)cc3)ccc2O[C@H]1CN(C)S(=O)(=O)c1cccs1,11.3,10.7
C[C@H]1CN([C@@H](C)CO)C(=O)c2cccc(NS(=O)(=O)c3ccc(F)cc3)c2O[C@H]1CN(C)C(=O)NC1CCCCC1,-3.4,-9.6
C[C@H](CO)N1C[C@H](C)[C@H](CN(C)Cc2cncnc2)Oc2cc(C3=CCCCC3)ccc2S1(=O)=O,-12.6,-1.8
O=C(Nc1ccc(F)cc1)N1CCCCN2[C@H](CO)[C@H](c3ccc(C#Cc4ccccc4)cc3)[C@H]2C1,?,/
C[C@@H]1CN([C@H](C)CO)C(=O)c2cc(NC(=O)CCC(F)(F)F)ccc2O[C@H]1CN(C)Cc1ccc(Oc2ccccc2)cc1,?,/
O=C(C[C@@H]1CC[C@@H]2[C@H](COC[C@H](O)CN2Cc2ccc(Cl)cc2)O1)NCCc1ccccc1,-26.1,-18.9
COCC(=O)N1CCCCN2[C@H](C1)[C@@H](c1ccc(C#Cc3cccnc3)cc1)[C@@H]2CO,26.2,18.2
CCC(=O)N1C[C@@H](O)COC[C@H]2O[C@@H](CC(=O)N3CCCCC3)CC[C@@H]21,11.9,9.4
C[C@H](CO)N1C[C@H](C)[C@@H](CN(C)C(=O)Nc2ccc(F)cc2)Oc2c(NC(=O)c3ccncc3)cccc2C1=O,8.8,9.5
O=C(CC1CC1)N1CC[C@H]2[C@H](CO)Nc3ccc(-c4cccc(F)c4)cc3[C@H]21,-15.4,-16.4
COc1cccc(NC(=O)N[C@@H]2C=C[C@@H](CC(=O)NCc3ccncn3)O[C@@H]2CO)c1,-14.0,2.0
COc1ccc(S(=O)(=O)N(C)C[C@H]2OCCCC[C@@H](C)Oc3ccc(NC(=O)C4CCCCC4)cc3C(=O)N([C@H](C)CO)C[C@H]2C)cc1,-31.3,-14.5
O=C(c1ccc2c(c1)OCO2)N1CC(=O)N2[C@H](CO)[C@@H](c3ccc(-c4ccccc4)cc3)[C@H]2C1,?,/
COc1ccccc1NC(=O)N[C@@H]1C=C[C@H](CC(=O)N[C@H](C)c2ccccc2)O[C@@H]1CO,22.2,13.0
O=C(CC1CC1)Nc1ccc2c(c1)[C@H]1C[C@H](CC(=O)NC3CCCCC3)O[C@H](CO)[C@H]1O2,1.0,6.5
CO[C@@H](CN(C)C(=O)c1cnccn1)[C@@H](C)CN([C@@H](C)CO)S(=O)(=O)c1ccc(C)cc1,17.3,16.9
Cc1ccc(S(=O)(=O)Nc2ccc3c(c2)C(=O)N([C@@H](C)CO)C[C@@H](C)[C@@H](CN(C)CC2CC2)O3)cc1,15.5,7.2
O=C(Nc1ccc(F)cc1)N[C@H]1CC[C@@H](CCn2cc(-c3ccc(F)cc3)nn2)O[C@@H]1CO,-2.0,0.5

# As a short view, some entries already given:
SMILES,Vaccinia stage,Vaccinia stage Venus
Cc1ccc(S(=O)(=O)Nc2ccc3c(c2)C(=O)N([C@@H](C)CO)C[C@@H](C)[C@@H](CN(C)CC2CC2)O3)cc1,15.5,7.2
O=C(Nc1ccc(F)cc1)N[C@H]1CC[C@@H](CCn2cc(-c3ccc(F)cc3)nn2)O[C@@H]1CO,-2.0,0.5

# (more compounds)
SMILES,Vaccinia stage,Vaccinia stage Venus
CN(C)C(=O)c1cccc(-c2ccc3n(c2=O)C[C@H]2N[C@@H]3[C@@H](C(=O)NC3CCC3)[C@@H]2CO)c1,8.8,6.3
O=C(C[C@@H]1CC[C@@H]2[C@H](COC[C@@H](O)CN2CC2CCOCC2)O1)N1CCOCC1,-1.3,2.3
Cc1ccc(S(=O)(=O)N(C)C[C@@H]2OCCCC[C@H](C)Oc3ccc(NC(=O)Nc4ccccc4)cc3C(=O)N([C@H](C)CO)C[C@H]2C)cc1,-3.8,5.9
CCN1[C@@H]2c3ccc(-c4cccc(F)c4)c(=O)n3C[C@H]1[C@H](CO)[C@H]2C(=O)NCCCN(C)C,12.1,7.9
CCC(=O)N1C[C@H](C)[C@H](OC)CN(C)C(=O)c2ccc(NC(=O)NC(C)C)cc2OC[C@@H]1C,3.6,6.5
C[C@@H]1CN([C@@H](C)CO)C(=O)Cc2cc(NS(=O)(=O)c3cccs3)ccc2O[C@H]1CN(C)C(=O)Nc1ccc(C(F)(F)F)cc1,6.7,5.6
CC(C)CC#Cc1ccc([C@H]2[C@@H](CO)N3CCCCN(S(=O)(=O)Cc4ccccc4)C[C@H]23)cc1,-34.2,-30.1
C[C@@H](NC(=O)C[C@H]1CC[C@H](NC(=O)C2CCOCC2)[C@H](CO)O1)c1ccccc1,6.9,3.6
C[C@H](CO)N1C[C@H](C)[C@@H](CN(C)Cc2ccccc2)Oc2c(NC(=O)Nc3ccc(C(F)(F)F)cc3)cccc2C1=O,-6.5,0.2
O=C(C[C@H]1C[C@@H]2c3cc(NC(=O)NC4CCCC4)ccc3O[C@@H]2[C@@H](CO)O1)NCc1ccccc1,5.7,5.1

# Single records (already shown). Order of screens: Vaccinia stage, Vaccinia stage Venus
# Shown for `C[C@@H](NC(=O)C[C@H]1CC[C@H](NC(=O)C2CCOCC2)[C@H](CO)O1)c1ccccc1` → 6.9, 3.6
# Shown for `C[C@H](CO)N1C[C@H](C)[C@@H](CN(C)Cc2ccccc2)Oc2c(NC(=O)Nc3ccc(C(F)(F)F)cc3)cccc2C1=O` → -6.5, 0.2
# Shown for `CCC(=O)N1C[C@H](C)[C@H](OC)CN(C)C(=O)c2ccc(NC(=O)NC(C)C)cc2OC[C@@H]1C` → 3.6, 6.5
# Shown for `C[C@@H]1CN([C@@H](C)CO)C(=O)Cc2cc(NS(=O)(=O)c3cccs3)ccc2O[C@H]1CN(C)C(=O)Nc1ccc(C(F)(F)F)cc1` → 6.7, 5.6

# Remaining list, next part.
SMILES,Vaccinia stage,Vaccinia stage Venus
Cc1ccc(S(=O)(=O)N(C)C[C@H]2OCc3ccccc3-c3ccccc3C(=O)N([C@H](C)CO)C[C@H]2C)cc1,-1.0,-4.4
COc1ccc(CN(C)C[C@H]2OCCCC[C@@H](C)Oc3ccc(NS(=O)(=O)c4cn(C)cn4)cc3C(=O)N([C@H](C)CO)C[C@@H]2C)cc1,16.9,4.8
COCC#Cc1cnc2c(c1)C(=O)N([C@H](C)CO)C[C@H](C)[C@@H](CN(C)Cc1ccccc1F)O2,-8.7,-5.3
C[C@H](CO)N1C[C@H](C)[C@H](CN(C)C(=O)Cc2ccccc2)OCCCC[C@H](C)Oc2ccc(NS(=O)(=O)c3cn(C)cn3)cc2C1=O,36.6,13.1
CN(C)CC(=O)N1[C@H](CO)[C@@H](c2ccccc2)C12CN(Cc1cc(F)ccc1F)C2,-3.4,2.0
C[C@@H]1CN([C@H](C)CO)C(=O)c2cccc(NC(=O)c3cnccn3)c2O[C@@H]1CN(C)C(=O)Nc1cccc2ccccc12,7.2,2.9
COc1ccc(CN(C)C[C@@H]2OCCCC[C@H](C)Oc3ccc(NC(=O)Nc4cccc5ccccc45)cc3C(=O)N([C@H](C)CO)C[C@@H]2C)cc1,?,/
COc1ccc(NC(=O)N(C)C[C@@H]2Oc3c(NC(=O)Nc4cccc5ccccc45)cccc3C(=O)N([C@@H](C)CO)C[C@@H]2C)cc1,-13.1,-12.6
Cc1noc(C)c1S(=O)(=O)Nc1cccc2c1O[C@H](CN(C)S(C)(=O)=O)[C@H](C)CN([C@@H](C)CO)C2=O,4.3,8.6
CO[C@@H]1CN(C)C(=O)c2cc(NC(=O)c3ccno3)ccc2OC[C@H](C)N(S(C)(=O)=O)C[C@H]1C,9.5,9.9
C[C@H]1CN([C@@H](C)CO)C(=O)CCCn2cc(nn2)CO[C@H]1CN(C)C(=O)Nc1cccc(C(F)(F)F)c1,14.4,20.6
COc1ccc(-c2ccc3c(c2)O[C@@H](CN(C)C(C)=O)[C@@H](C)CN([C@@H](C)CO)S3(=O)=O)cc1,13.2,13.8
O=C(Nc1cc(F)ccc1F)N1[C@@H]2CNC[C@H]1C2c1ccc(-c2ccncc2)cc1 (stereo partly specified),-17.7,-7.9
O=C(Nc1ccc(F)cc1)N1[C@@H]2CNC[C@H]1C2c1ccc(-c2ccc(F)cc2)cc1 (stereo partly specified),6.9,6.7
O=C(Nc1ccccc1)N1C[C@H]2[C@@H](c3ccccc31)[C@@H](CO)N2Cc1cocn1,10.7,2.4
C[C@H](CO)N1C[C@H](C)[C@H](CN(C)S(=O)(=O)c2cccs2)Oc2ccc(NC(=O)Nc3ccc(C(F)(F)F)cc3)cc2CC1=O,-22.0,-3.6
CCC(=O)Nc1ccc2c(c1)C(=O)N(C)[C@@H]1CC[C@H](CC(=O)N[C@@H](C)c3ccccc3)O[C@@H]1CO2,1.2,-2.5
C[C@H](CO)N1C[C@H](C)[C@H](CN(C)CC2CC2)Oc2ccc(NC(=O)Cc3cn(C)c4ccccc34)cc2CC1=O,5.3,10.7
C[C@H](CO)N1C[C@H](C)[C@@H](CN(C)S(=O)(=O)c2ccccc2)Oc2c(NC(=O)c3ccncc3)cccc2C1=O,3.9,4.2
C[C@@H]1CN([C@@H](C)CO)C(=O)c2cc(Br)cnc2O[C@H]1CN(C)C(=O)c1ccc2c(c1)OCO2,6.4,-1.7
Cc1noc(C)c1NC(=O)N1C[C@H](O)COC[C@H]2O[C@H](CC(=O)N3CCc4ccccc4C3)CC[C@@H]21,3.1,3.0
Cc1ccc(-c2ccc(C3[C@H]4CNC[C@@H]3N4C(=O)NC(C)C)cc2)cc1 (stereo partly specified),-2.0&13.9,2.7&-3.3
O=C(c1ccc(F)cc1)N1CCCCN2[C@H](C1)[C@@H](c1ccc(C#CC3(O)CCCC3)cc1)[C@@H]2CO,4.1,2.6
CC=Cc1ccc2n(c1=O)C[C@@H]1[C@@H](CO)[C@H](C(=O)NCc3ccccc3)[C@H]2N1S(C)(=O)=O (mixture of isomers),-3.7,-2.1
CNC[C@H]1OCCCC[C@@H](C)Oc2ccc(NS(=O)(=O)c3ccc(C)cc3)cc2C(=O)N([C@H](C)CO)C[C@H]1C,-2.3,0.5
COc1ccc(CN2[C@@H](CO)[C@@H]3c4ccccc4N(C(=O)NC(C)C)C[C@@H]32)cc1,-4.1,2.7
O=C(CC1CC1)N1CC[C@@H]2[C@H](CO)Nc3ccc(-c4ccccc4)cc3[C@@H]21,-6.7,0.0
N#Cc1cccc(-c2ccc([C@H]3[C@@H](CO)N[C@@H]3CNC(=O)C3CCCC3)cc2)c1,3.8,13.9
O=C1C=CCCN1C(=O)/C=C/c1cccc(C(F)(F)F)c1,-5.2,-2.1
CNC[C@@H]1Oc2ncc(-c3ccc(C)cc3)cc2C(=O)N([C@H](C)CO)C[C@@H]1C,-14.2,-3.6

# Only part of the results is shown; count on the stated rates, not on these rows.
